# CDC25B CDK2 inh: human CDC25B-CDK2/CyclinA binding inhibition. HTRF CDC25B-CDK2/CyclinA binding, anti-His/anti-Flag; active compounds read high. z-score (test concentration not listed). 0.72% of 94,000 active;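 also: score is relative to mean and SD of negative controls; strong numbers were not always called active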
# TAR Tat displ: HIV-1 TAR-Tat binding disruption; HIV-1 TAR RNA, Tat peptide displacement FRET; active compounds read high; 0.6% of 100,000 active; z-score (test concentration not listed);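 also: score is relative to mean and SD of negative controls; some compounds called inactive have numbers as strong as hits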
# * hit, by the source's call; nt = no result given.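 The calls were made as follows: active = z-score from 3 up in half or more of its runs; inactive = the rest.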
SMILES,CDC25B CDK2 inh,TAR Tat displ
COc1ccc(NC(=O)N2CCSc3ccccc32)cc1,nt,0.12
C#CCOc1ccc(Cl)cc1C1C2=C(CC(C)(C)CC2=O)N(CC(=O)O)C2=C1C(=O)CC(C)(C)C2,-2.3,-1.9
Nc1c(C(=O)N2CCCCC2)sc2nc(-c3cccs3)cc(C(F)(F)F)c12,-1.6,-0.71
Cc1c(C(=O)NCc2ccco2)oc2ccc(S(=O)(=O)N3CCCC(C)C3)cc12 (configuration not stated),-0.93,nt
COC(=O)c1sc(N2C(=O)c3oc4ccccc4c(=O)c3C2c2ccc(C)cc2)nc1C (configuration not stated),-0.68,-0.48
Cc1ccccc1-c1nc(SCC(=O)Nc2ccc(C(C)C)cc2)n2[nH]c(=O)cc2n1,nt,-1.1
COCCCn1c(=O)c2sccc2n2c(CCCC(=O)N3CCN(c4ccccn4)CC3)nnc12,nt,1.3
COc1cccc(NC2c3ncccc3C(=O)N2Cc2ccco2)c1 (configuration not stated),nt,1
COc1ccc(C2CC(=O)C3=C(C2)Nc2ccccc2NC3c2ccc(SC)cc2)cc1 (configuration not stated),-1.3,nt
CCCc1cc(C2CCCN2Cc2cc(Cl)ccc2O)no1 (configuration not stated),nt,1.1
O=C(Nc1ccccc1Cl)c1cnn2c1NC(c1ccco1)CC2C(F)(F)F (configuration not stated),nt,-16
O=c1oc(-c2c(Cl)cccc2Cl)ns1,-1.6,nt
CCN(CC)Cc1c(O)ccc2c(=O)c(Oc3ccccc3Cl)c(C(F)(F)F)oc12,-0.39,3.3
CSc1nc(N)n2nc(-c3cccs3)cc2n1,-1.5,nt
Cc1ccc(S(=O)(=O)Nc2ccccc2N2CCCCC2)cc1Cl,-1.8,nt
CCCN1CCN(CCCNC(=O)C2CCCN(c3nn4c(=O)cc(C)nc4s3)C2)CC1 (configuration not stated),-0.05,1.9
Cc1ccc(-n2ncc3c(NCCOCCO)ncnc32)c(C)c1,nt,1.1
C/C=C(\C)C(=O)O[C@@H]1c2c(ccc3ccc(=O)oc23)OC(C)(C)[C@@H]1OC(C)=O,nt,0.82
Cc1ccc2nc(Nc3ccc4c(c3)OCO4)c3nnnn3c2c1,0.34,-2.6
O=C1CCc2cc(C3=CSC4=NCCCN34)ccc2N1,-1.7,nt
COc1ccc(C2C=C(C(=O)O)Nc3ncnn32)cc1Br (configuration not stated),2,1.8
CCOC(=O)N1CCN(C(=O)c2ccc3nc4ccc(Cl)cc4c(=O)n3c2)CC1,nt,1.8
O=C(CSc1ccsc1[N+](=O)[O-])NCCC1=CCCCC1,-1.7,1.9
CC1=C(C(=O)OC(C)C)C(c2ccc(F)cc2)C(C(=O)OC(C)C)=C(C)N1,-1.4,nt
O=c1n(Cc2ccccc2)nc2n1-c1cc(Cl)ccc1OC2,-1.7,-0.59
Cc1ccc(S(=O)(=O)NC(=O)NCCNc2ncc(C(F)(F)F)cc2Cl)cc1,-1.5,nt
CCn1c(SCC(=O)c2ccc(F)cc2)nnc1-c1ccc2c(c1)OCO2,nt,1.4
CCN1CCN(c2ncc3c(N4CCC(C(=O)O)CC4)nccc3n2)CC1,-1.5,-0.33
CCc1nc(SCC(=O)Nc2ccc(Br)cc2)c2c3c(sc2n1)COC(C)(C)C3,-4.1,0.63
Cc1ccc(O)c(-n2cc3c(c2-c2ccc(Br)cc2)c(=O)n(C)c(=O)n3C)c1,-2.9,-0.1
CCC(C)NC(=O)Nc1cc2ccc(OC)cc2n1C (configuration not stated),-0.62,2.1
Cc1cc(NC(=O)c2nc3ccccc3nc2Cl)no1,-1.2,1.5
CCOC(=O)c1nc(Nc2cccc(SC)c2)c2c(C)noc2n1,nt,0.29
COc1ccc(-c2onc(C)c2C)cc1S(=O)(=O)Nc1ccc(C)c(N(C)C)c1,nt,0.42
O=C(O)c1ccc2c(=O)[nH]c3c(C(=O)NC4CCCCC4)sc(=S)n3c2c1,nt,10*
c1nc2nc3c(c(NCc4ccc5c(c4)OCO5)n2n1)CCC3,nt,0.21
CCN(CC)S(=O)(=O)c1ccc2c(c1)nc(CN1CCN(C(=O)NC(C)C)CC1)n2C,nt,1.1
COCCNC(=O)c1nc(-n2cnnc2)ccc1Br,nt,2
COc1ccc(OCCCSc2cc(-c3ccccc3)nc(C)n2)cc1,-0.2,0.38
Cn1c2ccccc2c2cnn(CC(=O)Nc3ccccc3F)c(=O)c21,-0.04,1.1

# 15 successive entries out of the list so far, for reference:
SMILES,CDC25B CDK2 inh,TAR Tat displ
COc1ccc(C2C=C(C(=O)O)Nc3ncnn32)cc1Br (configuration not stated),2,1.8
CCOC(=O)N1CCN(C(=O)c2ccc3nc4ccc(Cl)cc4c(=O)n3c2)CC1,nt,1.8
O=C(CSc1ccsc1[N+](=O)[O-])NCCC1=CCCCC1,-1.7,1.9
CC1=C(C(=O)OC(C)C)C(c2ccc(F)cc2)C(C(=O)OC(C)C)=C(C)N1,-1.4,nt
O=c1n(Cc2ccccc2)nc2n1-c1cc(Cl)ccc1OC2,-1.7,-0.59
Cc1ccc(S(=O)(=O)NC(=O)NCCNc2ncc(C(F)(F)F)cc2Cl)cc1,-1.5,nt
CCn1c(SCC(=O)c2ccc(F)cc2)nnc1-c1ccc2c(c1)OCO2,nt,1.4
CCN1CCN(c2ncc3c(N4CCC(C(=O)O)CC4)nccc3n2)CC1,-1.5,-0.33
CCc1nc(SCC(=O)Nc2ccc(Br)cc2)c2c3c(sc2n1)COC(C)(C)C3,-4.1,0.63
Cc1ccc(O)c(-n2cc3c(c2-c2ccc(Br)cc2)c(=O)n(C)c(=O)n3C)c1,-2.9,-0.1
CCC(C)NC(=O)Nc1cc2ccc(OC)cc2n1C (configuration not stated),-0.62,2.1
Cc1cc(NC(=O)c2nc3ccccc3nc2Cl)no1,-1.2,1.5
CCOC(=O)c1nc(Nc2cccc(SC)c2)c2c(C)noc2n1,nt,0.29
COc1ccc(-c2onc(C)c2C)cc1S(=O)(=O)Nc1ccc(C)c(N(C)C)c1,nt,0.42
O=C(O)c1ccc2c(=O)[nH]c3c(C(=O)NC4CCCCC4)sc(=S)n3c2c1,nt,10*

# Next part
SMILES,CDC25B CDK2 inh,TAR Tat displ
O=C(O)C1CCCN(c2cnccn2)C1 (configuration not stated),0.23,-0.12
Cc1cc(NS(=O)(=O)c2ccccc2)no1,-1.3,2.8
O=C(Nc1cccc(Cl)c1)c1cc2ccccc2oc1=O,-1.1,nt
CCOc1ccc2nc(N(CCN(C)C)C(=O)c3ccco3)sc2c1,nt,1.7
COc1ccccc1NS(=O)(=O)c1ccc2[nH]c3c(c2c1)CCCC3,nt,-4.3
C=CCn1c(SCC(=O)NCCc2ccccc2)nc2sc3c(c2c1=O)CCC3,-0.51,nt
Cc1cc(C)cc(OCc2cc(=O)n3cc(C)sc3n2)c1,-1.4,-0.65
CCNc1nc(N2CCN(CC)CC2)c2cnn(C)c2n1,nt,1.6
CC1(C)CC(=O)C2=C(C1)Nc1ccccc1N(C(=O)NCc1ccco1)C2c1cccs1 (configuration not stated),nt,0.83
CC(C)NC(=O)CN1C(=O)c2cccnc2Oc2ccc(Cl)cc21,nt,1.2
CCOC(=O)c1c[nH]c2c(OC)cc(OC)cc2c1=O,-0.94,0.49
Oc1c(CN2CCOCC2)ccc2ccccc12,0.63,nt
Cc1c(NC(=O)c2cc3n(n2)C(C(F)(F)F)CC(c2ccco2)N3)c(=O)n(-c2ccccc2)n1C (configuration not stated),2.2,0.9
Cn1c(=O)c(=O)n(C)c2cc(S(=O)(=O)N3CCCC3c3ccc(Cl)cc3)ccc21 (configuration not stated),-2.9,0.26
CC(C)C(=O)Nc1nc2ccccc2s1,-0.87,nt
COc1ccc(N2C(=O)CC(N3CCN(C)CC3)C2=O)cc1 (configuration not stated),-0.44,0.61
COc1ccc(CCN2CCC(Nc3nc4ccccc4n3Cc3ccc(F)cc3)CC2)cc1,nt,0.78
COc1ccc(OC)c(NC(=O)NCC2CCN(C3CCCC3)C2)c1 (configuration not stated),-0.06,1.4
Cn1c(=O)c2c(ncn2CC(=O)Nc2ccc(F)c(F)c2)n(C)c1=O,-0.33,1.7
COc1ccc(S(=O)Cc2ccc(C(=O)N3CCC(N4CCCCC4)CC3)o2)cc1 (configuration not stated),nt,1.4
COCCn1c(CN2CCOCC2)nc2ccccc21,0.03,0.55
Clc1ccc(Cc2nc(-c3cccnc3)no2)cc1,-1.5,0.03
Cn1c(=O)c2c(nc(NCCc3ccccc3)n2Cc2ccccc2F)n(C)c1=O,0.26,0.02
Cc1nc2scc(C)n2c(=O)c1S(=O)(=O)NC1CCCC1,-1.5,2.7
O=C(O)C1CCN(c2nccc3nc(NCc4ccccc4)ncc23)CC1,-0.94,1.6
COc1cc(C2C3=C(CCCC3=O)NC3=C2C(=O)c2ccccc23)ccc1O (configuration not stated),-3.7,2.4
Cc1cccn2c(=O)cc(COc3ccc(NC(=O)CCC4CCCC4)cc3)nc12,nt,-2.2
Cc1cccc(-c2nc3nc(C)cc(Nc4ccc5c(c4)OCO5)n3n2)c1,nt,-0.04
COC(=O)c1cc(C)nc2c1c(=O)nc(SCc1nc(-c3ccccc3)oc1C)n2C1CC1,nt,0.24
NC(=O)C1(N2CCCCC2)CCN(C2CC(=O)N(c3cccc(Cl)c3)C2=O)CC1 (configuration not stated),-0.98,-0.74
CCc1nc2nc(C)cc(Nc3ccc(N4CCOCC4)cc3)n2n1,nt,2.5
O=C(CCCc1nc(-c2cccnc2)no1)NC1CCCCC1,0.85,1.1
Cn1cccc1Cc1nnc(SCC(=O)Nc2ccc3c(c2)OCCO3)n1-c1ccc(Cl)cc1,-1,0.56
Cc1ccc(CNC(=O)CCN2C(=S)NC(C)(C)CC2C)o1 (configuration not stated),0.15,nt
Cc1ncc(-c2ccc(S(=O)(=O)N3CCN(c4cccc(C)c4C)CC3)cc2)o1,nt,1.4
CC(O)c1nc2ccccc2n1Cc1ccccc1 (configuration not stated),0.56,-0.34
COc1ccc(C(=O)NC(=S)Nc2ccc3oc(-c4ccc5ccccc5c4)nc3c2)cc1OC,-1.4,nt
CCOC(=O)Cc1csc(NC(=O)CC)n1,-0.9,0.15
O=C(CCC(=O)N1Cc2ccccc2Oc2ncccc21)NCC1CCCO1 (configuration not stated),nt,0.37
Cc1cc(C2CCCN2C(=O)c2cc3nc(-c4cccs4)cc(C(F)(F)F)n3n2)no1 (configuration not stated),nt,2.1
Cc1ccc(C(=O)NCc2ccc(F)cc2)cc1NC1=NC2CS(=O)(=O)CC2S1 (configuration not stated),-0.25,0.35
Cc1cccc(-c2c3c(=O)n(C)c(=O)n(C)c3cn2C2CCCC2)c1,-0.2,-0.29
CC[C@H]1OC(=O)[C@H](C)[C@@H](O[C@H]2C[C@@](C)(OC)[C@@H](O)[C@H](C)O2)[C@H](C)[C@@H](O[C@@H]2O[C@H](C)C[C@H](N(C)C)[C@H]2O)[C@](C)(O)C[C@@H](C)CN(C)[C@H](C)[C@@H](O)[C@]1(C)O,nt,-1.7
O=C(O)c1cc2c(cn1)[nH]c1ccccc12,1.8,-6.3
O=c1cc(CSc2ccc(Cl)cc2)[nH]c2[nH]n(-c3ccccc3)c(=O)c12,-0.02,4.6*
CN1CCN(c2ncnc3scc(-c4ccc(F)cc4)c23)CC1,nt,0.62
O=C1c2oc3ccc(Br)cc3c(=O)c2C(c2ccc(O)cc2)N1Cc1ccc(F)cc1 (configuration not stated),-1.7,-0.5
CCn1c(SCc2nc3ccccc3c(=O)[nH]2)nc2ccccc2c1=O,1.6,-0.84
CCOC(=O)c1ccc(NC(=O)NC(=O)c2c(SC)nsc2SC)cc1,-1.9,nt
O=C(Nc1ccc2nc3n(c(=O)c2c1)CCCCC3)C(=O)N1CCN(c2ccc(F)cc2)CC1,-3,2.2
CCOC(=O)COc1ccc2c(=O)c(Oc3cc(C)ccc3C)coc2c1,-1.4,nt
COc1ccc(Nc2c3c(nc4ccc(NC(=O)c5ccco5)cc24)CCCC3)cc1OC,2,2.2
Cc1coc(C)c1C(=O)CC1(O)C(=O)N(Cc2ccccc2)c2ccc(Br)cc21 (configuration not stated),-1.2,1.4
Brc1ccc(CNC23CN4CN(CN(C4)C2)C3)cc1,-0.87,nt
O=S1(=O)C=C(SCCN2CCCCC2)c2ccccc21,-0.42,nt
CC1=CCC2(C(=O)OC(C)(C)OC2=O)C(c2ccccc2)C1 (configuration not stated),-1.1,nt
CN(C)CCN(Cc1ccccc1)C(=O)C(C(=O)c1ccc(F)cc1)n1ccccc1=O (configuration not stated),-0.29,-1.1
COC(=O)c1cc(NC(=O)c2c(Cl)cccc2Cl)ccc1N1CCOCC1,-0.6,nt
CCOC(=O)CN1C(=O)C(=O)c2cc(C)ccc21,-0.58,3.9
Cc1cc2c3c([nH]c2cc1S(=O)(=O)N1CCCc2ccccc21)CCCC3=O,nt,1.1

# The list goes on.
SMILES,CDC25B CDK2 inh,TAR Tat displ
Cc1nc(C)c(-c2ccnc(NC(=O)Nc3ccc(Cl)cc3)n2)s1,0.47,nt
COc1ccccc1Nc1nnc(C(C)(C)C)c(=O)[nH]1,0.44,nt
O=C1c2cc(O)cc(O)c2OC[C@@H]1c1ccc(O)c(O)c1,nt,23*
c1ccc(N2CCN(Cc3cn4cccnc4n3)CC2)cc1,nt,-0.16
CCS(=O)(=O)c1nn(C)c2cnn(C)c(=O)c12,nt,-0.43
C=C1C(=O)OC2CC1C(OC(C)=O)C/C(C)=C/CC/C(C)=C/CC[C@]2(C)O (some centres not stated),nt,3.1
Cc1cc(=O)n2nc(N3CCC(C(=O)NCCCN4CCOCC4)CC3)sc2n1,0.06,0.9
Cc1ccc2c(c1)sc1nc(C)c(S(=O)(=O)Nc3ccc(F)cc3)c(=O)n12,nt,0.27
CCOC(=O)COc1ccc2c(c1)c(C(C)=O)c(C)n2-c1ccc(OC)cc1,-2.2,nt
CC(C)NC(=O)c1cc2ccccc2oc1=O,-0.8,nt
COc1ccc(Cl)cc1NC1=NS(=O)(=O)C(c2ccc(C)c(C)c2)=C1C,-1.1,-0.61
O=C(NCc1cccs1)c1ccc(CS(=O)c2ccc(Cl)cc2)o1 (configuration not stated),-1,1.5
COc1ccc(OC)c(NS(=O)(=O)c2ccc3c(c2)C(C)(C)C(=O)N3C)c1,nt,2.1
